Screening data: PubChem BioAssay, Broad Institute
MLL AF4-AF9 inh: blocks AF4 peptide binding to human AF9. P42568. AlphaScreen, biotin-AF4 peptide binding to FLAG-AF9. inhibition, % at 10 µM. actives 0.47% (n = 350,000). AID 651704;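 active means every replicate reaching a set inhibition limit, whatever the replicate mean, cut at about 25% in these data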;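 further: 0% = plate neutral control median and 100% = total signal loss; the record names both 10 and 1 µM as test concentration; the first replicate is given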
Target sequence (P42568 whole entry, looked up): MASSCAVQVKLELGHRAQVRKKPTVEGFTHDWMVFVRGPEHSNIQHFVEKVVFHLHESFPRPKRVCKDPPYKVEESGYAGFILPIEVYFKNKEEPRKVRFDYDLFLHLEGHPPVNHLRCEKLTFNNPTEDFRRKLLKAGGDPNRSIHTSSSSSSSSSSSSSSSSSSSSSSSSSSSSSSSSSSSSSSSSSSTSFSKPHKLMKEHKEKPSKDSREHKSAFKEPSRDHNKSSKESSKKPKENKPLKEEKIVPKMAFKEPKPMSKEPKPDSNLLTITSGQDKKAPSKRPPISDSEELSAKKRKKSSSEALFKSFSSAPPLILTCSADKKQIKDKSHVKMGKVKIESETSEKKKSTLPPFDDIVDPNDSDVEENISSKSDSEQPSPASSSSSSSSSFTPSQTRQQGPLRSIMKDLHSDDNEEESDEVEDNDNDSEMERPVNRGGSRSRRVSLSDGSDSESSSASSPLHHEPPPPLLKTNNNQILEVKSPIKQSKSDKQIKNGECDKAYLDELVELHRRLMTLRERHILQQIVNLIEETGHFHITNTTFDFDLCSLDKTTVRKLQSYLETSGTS
Starred values were filed as active, the others as inactive. A portion of the library; count on the stated rates, not on these rows.

molecule	MLL AF4-AF9 inh
Cc1cccc(-n2c(SCN3C(=O)c4ccccc4C3=O)nc3ccccc3c2=O)c1	-3.3
COc1ccc(S(=O)(=O)Nc2ccc3c(c2)C(=O)N([C@@H](C)CO)C[C@H](C)[C@@H](CN(C)S(=O)(=O)c2ccc(F)cc2)OCCCC[C@H](C)O3)cc1	-1.5
CCC(=O)Nc1ccc2c(c1)OC[C@@H](C)N(C(=O)C1CC1)C[C@H](C)[C@@H](OC)CN(C)C2=O	-1.6
Cc1noc(C)c1NC(=O)Nc1cccc2c1O[C@@H](CN(C)C(=O)Nc1cccc3ccccc13)[C@@H](C)CN([C@H](C)CO)C2=O	2.4
CC(=O)N[C@@H]1CC[C@@H](CCNC(=O)C2CCCC2)O[C@H]1CO	1.9
CCCNC(=O)N1CC2(C1)CN(C(=O)CC)[C@H](CO)c1[nH]c3cc(OC)ccc3c12	-2.3
CCCCc1c(-c2cccc(Br)c2)ncn1CCc1ccccc1OC	-2.6
C[C@H](CO)N1C[C@H](C)[C@H](CN(C)Cc2ccc(Cl)c(Cl)c2)OCCCC[C@H](C)Oc2ccc(NC(=O)Nc3ccccc3)cc2C1=O	-0.9

New compounds follow:
molecule	MLL AF4-AF9 inh
CCCNC(=O)Nc1ccc2c(c1)OC[C@@H](C)N(C(=O)C1CCC1)C[C@H](C)[C@@H](OC)CN(C)C2=O	-0.4
C[C@H]1CN([C@@H](C)CO)S(=O)(=O)c2ccc(-c3ccc(C#N)cc3)cc2O[C@H]1CN(C)C(=O)C1CC1	-13
C[C@H](NC(=O)C[C@@H]1C=C[C@@H](NC(=O)CN2CCOCC2)[C@H](CO)O1)c1ccccc1	-3.1
Cc1noc(C)c1NC(=O)Nc1ccc2c(c1)C(=O)N([C@H](C)CO)C[C@H](C)[C@H](CN(C)S(=O)(=O)c1c(C)noc1C)OCCCC[C@@H](C)O2	-5.9
C[C@@H]1CN([C@@H](C)CO)C(=O)Cc2cc(NC(=O)Nc3ccccc3)ccc2O[C@H]1CN(C)S(C)(=O)=O	1.2
CCCNC(=O)Nc1ccc2c(c1)C(=O)N(C)[C@H]1CC[C@H](CC(=O)Nc3ccccc3F)O[C@@H]1CO2	5.6
O=C(NCc1ccccc1)[C@H]1CCCN1C(=O)[C@H]1CCCN1C(=O)c1ccc(OC(F)(F)F)cc1	1.2
C[C@@H]1CN([C@@H](C)CO)S(=O)(=O)c2ccc(/C=C/c3ccccc3)cc2O[C@@H]1CN(C)C(=O)c1cccnc1	6.5

Next part
molecule	MLL AF4-AF9 inh
CCCNC(=O)Nc1ccc2c(c1)C(=O)N(C)C[C@@H](OC)[C@H](C)CN(C(=O)C1CCCC1)[C@H](C)CO2	-0.3
Cc1cnc(CNc2nc3cc(-c4ccccc4C)sc3c(=O)n2C)cn1	-5.1
C[C@H](CO)N1C[C@H](C)[C@H](CN(C)S(C)(=O)=O)Oc2ccc(NC(=O)Cc3cn(C)c4ccccc34)cc2CC1=O	-1.6
Cc1cn([C@H]2C[C@H](O)[C@@H](/C=C/C(=O)NCc3ccc(N(C)C)cc3)O2)c(=O)[nH]c1=O	1.2
C[C@H]1CN([C@@H](C)CO)C(=O)c2cc(-c3ccccc3F)cnc2O[C@@H]1CN(C)C(=O)c1cnccn1	-1.6
O=C(c1ccccc1)N1C[C@H]2[C@@H](c3ccccc31)[C@@H](CO)N2C(=O)c1cccc(F)c1	0.0
O=C(Nc1ccccc1)C1Cc2c(-c3ccc4c(c3)OCO4)ccnc2O1 (stereo not given)	-4.5
CCCC#Cc1ccc([C@H]2[C@@H](CO)N3CCCCN(S(C)(=O)=O)C[C@H]23)cc1	8.3

Next section
molecule	MLL AF4-AF9 inh
O=C(C[C@@H]1CC[C@H]2[C@@H](COC[C@@H](O)CN2Cc2cccc(F)c2)O1)NCC1CCCCC1	0.2
C[C@H]1CN([C@@H](C)CO)C(=O)c2cccc(NC(=O)CCCCCC(=O)Nc3ccccc3N)c2O[C@H]1CN(C)Cc1ccncc1	1.9
COc1ccccc1NC(=O)N1CCCCN2[C@H](CO)[C@H](c3ccc(-c4ccccc4)cc3)[C@H]2C1	8.0
C[C@H](CO)N1C[C@H](C)[C@H](CN(C)Cc2ccc(C(F)(F)F)cc2)Oc2c(NS(C)(=O)=O)cccc2C1=O	-0.4
C[C@H](O)C#Cc1ccc2c(c1)O[C@@H](CN(C)C)[C@@H](C)CN([C@@H](C)CO)S2(=O)=O	-2.7
Cc1noc(C)c1S(=O)(=O)Nc1ccc2c(c1)C(=O)N([C@H](C)CO)C[C@H](C)[C@H](CN(C)CC1CCCCC1)O2	0.4
CN(C)c1cccc(CNC(=O)c2csc([C@@H]3O[C@H](CO)[C@H](O)[C@H](O)[C@H]3O)n2)c1	7.7
COc1ccc(S(=O)(=O)N[C@H]2C=C[C@@H](CC(=O)NCCc3ccncc3)O[C@H]2CO)cc1	-0.2

Carrying on.
molecule	MLL AF4-AF9 inh
Cc1ccccc1-c1ccc2c(c1)O[C@H](CN(C)Cc1ccncc1)[C@H](C)CN([C@@H](C)CO)S2(=O)=O	7.2
CNC[C@@H]1Oc2ccc(NC(=O)CCCN(C)C)cc2CC(=O)N([C@@H](C)CO)C[C@H]1C	-3.9
COc1ccccc1-c1ccc(C2[C@H]3CNC[C@@H]2N3S(=O)(=O)c2ccccc2OC)cc1 (stereo not given in full)	-0.8
C[C@H]1CN([C@@H](C)CO)C(=O)Cc2cc(NC(=O)Nc3ccc(C(F)(F)F)cc3)ccc2O[C@@H]1CN(C)S(=O)(=O)c1cn(C)cn1	-2.7
C[C@H]1CN([C@@H](C)CO)C(=O)c2cccc(NC(=O)CCCCCC(=O)Nc3ccccc3N)c2O[C@@H]1CN(C)C(=O)Nc1cccc2ccccc12	-1.2
CC(=O)Nc1cccc(/C(C)=N/Nc2ccc(S(=O)(=O)Nc3ccccc3C(=O)O)cc2[N+](=O)[O-])c1	3.9
C[C@@H]1CCCCO[C@H](CN(C)S(=O)(=O)c2cccs2)[C@H](C)CN([C@@H](C)CO)C(=O)c2cc(NS(=O)(=O)c3cn(C)cn3)ccc2O1	-2.6
Cc1cccc(S(=O)(=O)N2C[C@H]3[C@@H](c4ccccc42)[C@H](CO)N3C(=O)C2CC2)c1	-2.7

(more compounds)
molecule	MLL AF4-AF9 inh
O=C(Nc1ccccc1)N1CC(=O)N2[C@@H](CO)[C@H](c3ccc(C#CC4CCCCC4)cc3)[C@@H]2C1	7.9
COCC(=O)Nc1ccc2c(c1)C(=O)N(C)C[C@@H](OC)[C@@H](C)CN(C(C)=O)[C@@H](C)CO2	-0.4
COc1ccc(NC(=O)N(C)C[C@H]2Oc3cc(C#CCN(C)C)ccc3S(=O)(=O)N([C@@H](C)CO)C[C@@H]2C)cc1	3.2
CCCN1C[C@H](C)[C@H](OC)CN(C)C(=O)c2cc(NC(=O)c3ccccc3)ccc2OC[C@H]1C	-0.8
CN(C)C(=O)c1cccc(-c2ccc([C@@H]3[C@H]4CN(C(=O)C5CCC5)CCCCN4[C@H]3CO)cc2)c1	-4.2
C[C@@H]1CCCCO[C@@H](CN(C)C(=O)Nc2ccccc2)[C@H](C)CN([C@@H](C)CO)C(=O)c2cc(NC(=O)C3CCCCC3)ccc2O1	-1.1
C[C@@H]1CN([C@H](C)CO)C(=O)Cc2cc(NC(=O)C3CCCCC3)ccc2O[C@@H]1CN(C)Cc1ccncc1	-0.8
Cc1noc(C)c1S(=O)(=O)N(C)C[C@H]1Oc2ccc(NC(=O)Cc3cn(C)c4ccccc34)cc2CC(=O)N([C@@H](C)CO)C[C@@H]1C	3.5

The results go on:
molecule	MLL AF4-AF9 inh
O=C(C[C@H]1CC[C@H]2[C@@H](COC[C@H](O)CN2CCC(F)(F)F)O1)NCc1ccc2c(c1)OCO2	-0.1
COc1ccc(Cn2cc(CN3CC(N4CC=CC4)CS3(=O)=O)nn2)cc1 (stereo not given)	1.3
C[C@@H]1CN([C@@H](C)CO)C(=O)c2cc(N(C)C)ccc2O[C@@H](C)CCCCO[C@H]1CN(C)C(=O)c1ccccc1	2.0
CN1CCN(C(=O)C[C@H]2CC[C@@H]3[C@H](COC[C@@H](O)CN3C(=O)c3ccccc3F)O2)CC1	-3.1
O=C([C@H]1[C@H](CO)[C@H]2Cn3c(cccc3=O)[C@@H]1N2CC1CC1)N1CCc2ccccc2C1	-0.6
O=C(Cc1ccccc1)N1CC[C@H]2[C@H](CO)Nc3ccc(-c4ccccc4F)cc3[C@H]21	9.1
CC(C)NC(=O)N(C)C[C@H]1Oc2cc(C#Cc3ccccn3)ccc2S(=O)(=O)N([C@@H](C)CO)C[C@@H]1C	-1.7
C[C@@H]1CN([C@H](C)CO)C(=O)c2cc(NC(=O)Cc3cn(C)c4ccccc34)ccc2O[C@@H]1CN(C)Cc1ccc(C(=O)O)cc1	-1.1

Rewritten with each value named: part of the list above
SMILES: CNC[C@@H]1Oc2ccc(NC(=O)CCCN(C)C)cc2CC(=O)N([C@@H](C)CO)C[C@H]1C
  MLL AF4-AF9 inh = -3.9
SMILES: Cc1cccc(S(=O)(=O)N2C[C@H]3[C@@H](c4ccccc42)[C@H](CO)N3C(=O)C2CC2)c1
  MLL AF4-AF9 inh = -2.7
SMILES: O=C([C@H]1[C@H](CO)[C@H]2Cn3c(cccc3=O)[C@@H]1N2CC1CC1)N1CCc2ccccc2C1
  MLL AF4-AF9 inh = -0.6
SMILES: C[C@H](CO)N1C[C@H](C)[C@H](CN(C)Cc2ccc(Cl)c(Cl)c2)OCCCC[C@H](C)Oc2ccc(NC(=O)Nc3ccccc3)cc2C1=O
  MLL AF4-AF9 inh = -0.9

Next entries.
molecule	MLL AF4-AF9 inh
COc1cccc(-c2ccc3c(c2)[C@@H]2[C@@H](CCN2C(=O)C2CCCC2)[C@@H](CO)N3)c1	13
C[C@H]1CN([C@@H](C)CO)C(=O)Cc2cc(NC(=O)Nc3ccc4c(c3)OCO4)ccc2O[C@@H]1CN(C)C	6.5
CN(C)C(=O)C[C@H]1CC[C@@H]2[C@H](COC[C@@H](O)CN2Cc2ccc(C(F)(F)F)cc2)O1	-4.8
C[C@H](CO)N1C[C@H](C)[C@H](CN(C)CC2CCOCC2)Oc2ncc(-c3ccc(C#N)cc3)cc2C1=O	-3.4
C[C@H]1CN([C@@H](C)CO)C(=O)c2cccc(NC(=O)Nc3ccc(C(F)(F)F)cc3)c2O[C@H]1CN(C)CC1CCCCC1	4.6
C[C@H](O)C#Cc1ccc([C@@H]2[C@@H](CO)N3CCCCN(C(=O)Nc4ccccc4)C[C@H]23)cc1	-0.1
O=C1NC[C@H](CCCCN2CCN(CC3CCCCC3)C(=O)C2=O)N(CCC2CCCCC2)C1=O	0.6
CCCCNC(=O)C(NC(=O)c1ccc(-c2ccccc2)cc1)C(=O)c1ccccc1 (stereo not given)	0.3

In a second layout: two of the compounds above.
MLL AF4-AF9 inh	mol
13	COc1cccc(-c2ccc3c(c2)[C@@H]2[C@@H](CCN2C(=O)C2CCCC2)[C@@H](CO)N3)c1
0.3	CCCCNC(=O)C(NC(=O)c1ccc(-c2ccccc2)cc1)C(=O)c1ccccc1 (stereo not given)

(listing goes on)
molecule	MLL AF4-AF9 inh
CN(C)C(=O)c1cccc(-c2ccc([C@@H]3[C@@H](CO)N4CCCCN(CCC(F)(F)F)C[C@H]34)cc2)c1	3.3
CC(C)NC(=O)N[C@@H]1CC[C@H](CC(=O)NCc2ccc(Oc3ccccc3)cc2)O[C@H]1CO	-0.5
COc1ccc2c3c([nH]c2c1)[C@@H](CO)N(C(C)=O)CC31CN(C(=O)Nc2ccccc2F)C1	1.6
CC(C)NC(=O)Nc1cccc2c1O[C@H](CN(C)C(=O)Nc1cccc3ccccc13)[C@H](C)CN([C@@H](C)CO)C2=O	1.2
COc1ccc2c3c(n(C)c2c1)[C@H](CO)N(C(=O)Nc1ccc(F)cc1)CC31CN(C(=O)Nc2c(C)noc2C)C1	3.0
CCCC#Cc1ccc([C@H]2[C@@H](CO)N3C(=O)CN(C(=O)Nc4ccccc4)C[C@@H]23)cc1	-7.9
C[C@H](CO)N1C[C@H](C)[C@H](CN(C)C(=O)c2ccncc2)Oc2cc(/C=C/c3ccccc3)ccc2S1(=O)=O	11
Cc1ccc(S(=O)(=O)N2[C@@H](c3ccc(C(C)(C)C)cc3)C(C(=O)O)=CC[C@H]2c2ccc(Cl)cc2)cc1	-5.0

(further entries)
molecule	MLL AF4-AF9 inh
CC(=O)N(C)C[C@H]1Oc2cc(-c3cccnc3)ccc2S(=O)(=O)N([C@H](C)CO)C[C@H]1C	-2.2
C[C@@H]1CN([C@@H](C)CO)C(=O)c2cc(NS(=O)(=O)c3cccs3)ccc2O[C@@H](C)CCCCO[C@H]1CN(C)C(=O)CCCN(C)C	-0.7
COCC(=O)N1C[C@H](C)[C@@H](OC)CN(C)C(=O)c2ccc(NC(=O)Nc3cccc(F)c3)cc2OC[C@@H]1C	0.1
Cc1noc(C)c1S(=O)(=O)Nc1ccc2c(c1)C(=O)N([C@@H](C)CO)C[C@H](C)[C@@H](CN(C)Cc1ccc3c(c1)OCO3)O2	0.3
Cc1cc(C(=O)Nc2cccc3c2O[C@@H](CN(C)C)[C@H](C)CN([C@H](C)CO)C3=O)n(C)n1	6.9
CC(C)N(C)c1ncnc2c1ncn2[C@H]1CN(CCc2ccccc2)C[C@@H](CO)O1	-5.0
COc1ccc(CN(C)C[C@H]2Oc3ccc(NC(=O)Nc4cccc5ccccc45)cc3C(=O)N([C@H](C)CO)C[C@H]2C)cc1	1.3
Cc1noc(C)c1NC(=O)N(C)C[C@@H]1OCCCC[C@H](C)Oc2ccc(NC(=O)NC3CCCCC3)cc2C(=O)N([C@@H](C)CO)C[C@H]1C	-7.7
CCC(=O)N1C[C@H](O)COC[C@H]2O[C@H](CC(=O)NCc3ccc(Oc4ccccc4)cc3)CC[C@@H]21	2.0
COCC(=O)Nc1ccc2c(c1)OC[C@@H](C)N(C(=O)c1ccccc1)C[C@@H](C)[C@H](OC)CN(C)C2=O	-1.6
O=C(C[C@@H]1CC[C@@H]2[C@H](COC[C@H](O)CN2Cc2cc(F)ccc2F)O1)NCc1ccc(F)cc1	-1.0
